Screening results deposited in PubChem BioAssay by National Center for Advancing Translational Sciences (NCATS).
NPR1 antag – Natriuretic polypeptide receptor (hNpr1) antagonism - Primary qHTS | Atrial natriuretic peptide receptor 1 (Homo sapiens), P16066 | HEK293 hNpr1 GloSensor cGMP, ANP-stimulated luminescence | Potency, µM (series often up to 46.3 µM), inactives show at the top dose activity change, negative = inhibition, hits mostly inhibitors | 76,000 compounds, 1.6% hits | AID 1347048, 2019; active = well fitted inhibition curve with a large enough effect; inconclusive = small, poorly fitted or top-dose-only effect; inactive = no such curve, though single readings can be large or run the other way;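 note: nearly all actives have a fitted effect of over 60% in size; nearly all hits also lower the signal before the agonist is added; a reference antagonist and vehicle were the controls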
Target sequence (P16066 whole entry, looked up): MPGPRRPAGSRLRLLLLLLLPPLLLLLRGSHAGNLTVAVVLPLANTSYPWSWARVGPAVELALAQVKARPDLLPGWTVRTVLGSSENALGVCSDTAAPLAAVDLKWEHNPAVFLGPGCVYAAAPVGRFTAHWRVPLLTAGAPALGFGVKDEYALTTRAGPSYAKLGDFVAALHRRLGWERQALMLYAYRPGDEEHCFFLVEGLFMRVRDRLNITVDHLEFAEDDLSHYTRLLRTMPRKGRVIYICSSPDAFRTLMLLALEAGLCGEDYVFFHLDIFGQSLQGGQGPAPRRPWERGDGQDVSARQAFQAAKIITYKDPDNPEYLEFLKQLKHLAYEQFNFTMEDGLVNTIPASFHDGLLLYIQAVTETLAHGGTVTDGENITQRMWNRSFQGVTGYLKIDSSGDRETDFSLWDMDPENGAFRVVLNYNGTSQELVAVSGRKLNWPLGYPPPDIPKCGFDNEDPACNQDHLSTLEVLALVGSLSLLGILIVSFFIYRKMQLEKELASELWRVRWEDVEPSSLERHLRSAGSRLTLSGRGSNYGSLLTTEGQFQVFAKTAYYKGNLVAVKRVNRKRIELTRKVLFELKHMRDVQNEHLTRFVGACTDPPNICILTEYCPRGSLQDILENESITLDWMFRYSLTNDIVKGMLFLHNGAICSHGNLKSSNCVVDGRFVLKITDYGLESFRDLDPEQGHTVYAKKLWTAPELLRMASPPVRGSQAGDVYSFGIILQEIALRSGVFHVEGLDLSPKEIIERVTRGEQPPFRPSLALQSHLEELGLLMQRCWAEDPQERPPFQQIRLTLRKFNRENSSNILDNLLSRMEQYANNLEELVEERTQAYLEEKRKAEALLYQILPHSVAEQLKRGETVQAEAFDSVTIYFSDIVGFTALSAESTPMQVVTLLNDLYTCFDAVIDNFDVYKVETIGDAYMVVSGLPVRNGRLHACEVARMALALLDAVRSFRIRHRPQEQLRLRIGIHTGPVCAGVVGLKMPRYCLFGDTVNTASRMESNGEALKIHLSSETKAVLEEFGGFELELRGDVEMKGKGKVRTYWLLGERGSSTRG
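HEK293 cells stably expressing human Npr1 and cGMP GloSensor pGS-40F, loaded 2 h with 2% GloSensor reagent, given compound 30 min at room temperature. Luminescence read before and 20 min after 0.1 nM hNppA.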
* = called active by the depositor; ? = inconclusive; [ ] = remark or other dose. % is set by controls: 0 for no effect and ±100 for the full control effect; potency is the fitted concentration of half-maximal effect. Only part of the results is shown; count on the stated rates, not on these rows.

Structure | NPR1 antag
CCc1ccc(S(=O)(=O)N2[C@@H]3CC[C@H]2CC(NC(=O)c2ccc(F)cc2)C3)cc1 (stereo partly specified) | 1%
COc1cccc(CNC(=O)c2c(C)noc2-c2ccccc2Cl)c1 | -11%
O=C1N2CCCC2CN1C1CCN(Cc2ccsc2)CC1 (stereo unspecified) | 0%[70.6 µM]
CCn1ccnc1C1CCN(c2nc3ccccc3o2)CC1 | 0%
O=C(c1ccc(Cl)cc1)N1CCNc2cnc(Nc3cccc(C(F)(F)F)c3)nc2C1 | ?
O=C(Nc1ccc2[nH]ccc2c1)c1ccc(-c2ncc3cnc(C4=CCOCC4)cn23)cc1 | -18%[70.6 µM]
CN(C)c1ccc(-c2nnc([C@H]3CCN(Cc4ccccc4)C3)o2)cc1 | -7%[70.6 µM]
COc1ccccc1N1CCN(C(=O)c2noc(-c3ccc(C)cc3)n2)CC1 | -6%
COc1ccc(CNC(=O)C2(N3C[C@@H](C)O[C@@H](C)C3)Cc3ccccc3C2)cc1 | 2%
COc1ccc(C(C(=O)O)N2CCc3sccc3C2)c(OC)n1 (stereo unspecified) | 6%

The list goes on, overlapping the part above by 7 compounds.
Structure | NPR1 antag
CCn1ccnc1C1CCN(c2nc3ccccc3o2)CC1 | 0%
O=C(c1ccc(Cl)cc1)N1CCNc2cnc(Nc3cccc(C(F)(F)F)c3)nc2C1 | ?
O=C(Nc1ccc2[nH]ccc2c1)c1ccc(-c2ncc3cnc(C4=CCOCC4)cn23)cc1 | -18%[70.6 µM]
CN(C)c1ccc(-c2nnc([C@H]3CCN(Cc4ccccc4)C3)o2)cc1 | -7%[70.6 µM]
COc1ccccc1N1CCN(C(=O)c2noc(-c3ccc(C)cc3)n2)CC1 | -6%
COc1ccc(CNC(=O)C2(N3C[C@@H](C)O[C@@H](C)C3)Cc3ccccc3C2)cc1 | 2%
COc1ccc(C(C(=O)O)N2CCc3sccc3C2)c(OC)n1 (stereo unspecified) | 6%
Cc1ccccc1C(=O)N1CCC(Cc2nc(-c3ccccc3)no2)CC1 | 8.9µM*
CC(C)CNC(=O)C1CCc2ncc(-c3ccsc3)n2C1 (stereo unspecified) | 3%
COc1ccc2[nH]c(C(=O)N3CCC4(CC3)CC(c3nc(C)no3)N(C)C4)cc2c1 (stereo unspecified) | -3%
CN(CC(=O)N1CCc2c(c(-c3nncn3CC3CC3)nn2C)C1)S(=O)(=O)c1cnc[nH]1 | 5%
Cc1ccc(C(=O)N2CCC3(CN[S+](=O)([O-])c4ccccc4N3)C2)cc1 (stereo unspecified) | -2%
COc1ccc(C(=O)NCCC2CCN(C(=O)Nc3cc(F)ccc3F)CC2)cc1OC | 3%
O=C(NC1CCCN(c2cc(-c3ccccc3)[nH]n2)C1)c1cc(F)ccc1F (stereo unspecified) | -21%
O=C(c1cccc(OC(F)(F)F)c1)N1CCN(c2cc(-c3ccc(F)cc3)[nH]n2)CC1 | ?
CCCc1nnc(NC(=O)Cn2nc3c(cc2=O)CCCCC3)s1 | -20%
COc1ccc(CC(=O)N2Cc3[nH]cnc3C[C@H]2c2nc(-c3ccc4ccccc4c3)no2)cc1 | -5%

(continued)
Structure | NPR1 antag
CCOc1ccccc1CN1CCc2nc(N3CCN(C)CC3)[nH]c(=O)c2CC1 | 3%
COc1ccccc1OCc1nnc(C(=O)N2CCC[C@@H]2C(c2ccccc2)c2ccccc2)n1-c1ccccc1 | -8%
CN(Cc1cccnc1)Cc1nc(C2(O)CCN(CC3CC3)CC2)cs1 | -2%[70.6 µM]
COc1ccc(-c2cc(N3CCCC(NC(=O)c4cccc(OC)c4OC)C3)n[nH]2)cc1 (stereo unspecified) | -11%
COc1cc(NC(=S)N[C@H]2CO[C@H]3[C@@H]2OC[C@H]3OC(=O)Nc2ccccc2)cc(OC)c1 | -13%
O=C(NCC1Cn2cccc2C(=O)N1Cc1ccccc1)c1ccc2ncccc2c1 (stereo unspecified) | -11%
Cc1nc(C)c(C(=O)N2CCCN(S(C)(=O)=O)C(c3ccccc3)CC(=O)NCC2)s1 (stereo unspecified) | 5%
COc1ccccc1CN1CC[C@@H]2CN(S(C)(=O)=O)[C@@H]2C1 | 2%
O=C1NCCCCCCN(C(=O)Nc2ccccc2F)[C@H]2C[C@H](c3nc(-c4cccnc4)no3)C[C@@H]12 | -15%
Cn1cnc(S(=O)(=O)N2CCCC(Cc3noc(-c4ccccc4)n3)C2)c1 (stereo unspecified) | 2%

Other compounds follow:
Structure | NPR1 antag
COCC(=O)N1CC[C@@H](CC(=O)O)[C@@H](CC2=NCCc3cc(OC)ccc32)C1 | 0%[70.6 µM]
CN1CCN(C(=O)CCC[C@@H]2[C@H]3CCCN4CCC[C@@H](CN2C(=O)c2cccnc2)[C@@H]34)CC1 | 2%
Cc1cccc(-c2ocnc2C(=O)N2CCN3CCS(=O)(=O)N(C4CC4)C(=O)C3C2)c1 (stereo unspecified) | 5%
O=C(Cc1ccc(F)cc1)N1CCC2(CC1)CC(=O)N(c1ccccc1)c1ccccc1O2 | -9%
O=C(NCCc1cnc[nH]1)c1cn(CCC2CCCCN2)nn1 (stereo unspecified) | 2%
O=C(c1ccc(F)cc1)N1CCC2(CC1)C(=O)NCN2Cc1ccc(Cl)cc1 | 14%
O=C(NC1CCCN(c2cc(-c3ccccc3)[nH]n2)C1)c1cnccn1 (stereo unspecified) | -15%
Cc1ccc(C(O)Cn2ccn3nc(-c4ccc(F)cc4)cc3c2=O)cc1 (stereo unspecified) | 2%
COc1cc(Cl)c(C)cc1NC(=O)Cn1cccc1-c1nc(-c2ccc(F)cc2)no1 | -8%
Cc1cccc(CN(C(=O)c2ccco2)c2ccc(CC(=O)NC(C)C)cc2)c1 | 0%

Other results follow.
Structure | NPR1 antag
Fc1ccc(Nc2nc(-c3ccccc3F)no2)cc1 | ?
COC[C@@H]1CN(c2ncccn2)C[C@H]1C(=O)N(C)Cc1cn(C)nc1C | 6%
Cc1nc(CNC(=O)c2csc(-c3ccc(C(F)(F)F)cc3)n2)no1 | 2%
Cc1nn(C)c(C)c1CCN(C)C(=O)C1CCCCC(=O)N1 (stereo unspecified) | -3%
CC(=O)Nc1ccc(-c2ccc(=O)n3c2[C@@H]2C[C@@H](CN(C(=O)c4ccc(F)cc4)C2)C3)cc1 | -1%
COc1ccc(-c2ccc3c(c2)C(=O)N2CC[C@H](NC(=O)C4CCCC4)[C@H]2C(=O)N3)c(OC)c1 | -2%
Nc1ncccc1CN1CCC2(CC1)COCCN2C(=O)OCc1ccccc1 | 7.9µM*
Cc1noc(C)c1Cn1cc2c3c(cccc31)[C@H](CC(C)C)N[C@H](C(=O)NCc1ccco1)C2 | -18%
CCC(=O)NC1CCN(c2cnn(CC)c(=O)c2)CC1 | 7%
O=C(O)C(Cc1ccco1)n1cc(-c2nccs2)nn1 (stereo unspecified) | 5%

(further entries)
Structure | NPR1 antag
COc1cccc(CC(=O)N2C[C@@H](CO)[C@H](c3ccccn3)C2)c1 | 3%
CN(C(=O)Cn1cccc1-c1nc(-c2ccc3c(c2)OCO3)no1)c1ccccc1 | -20%
CNC(=O)c1cccc(-c2cnc(NC(=O)c3ccncc3)c3c2CCO3)c1 | -15%[70.6 µM]
O[C@@H]1C[C@@H](c2nnc3n2CCN(Cc2cccc4[nH]ccc24)C3)N(Cc2ccccc2)C1 | 5%
O=C(CC[C@@H]1CNC(=O)[C@@H]2C[C@H](NCc3ccc(OC(F)(F)F)cc3)CN12)Nc1ccccc1 | 1%
O=C1NCCCCCCN(Cc2ccncc2)[C@@H]2CN(C(=O)NCCc3ccccc3)CC[C@@H]12 | -1%
Cc1ccc2oc([C@H]3CCN(Cc4ccccn4)C3)nc2c1 | -17%[70.6 µM]
CCOc1cccc(-c2nc(C(=O)NCc3ccc4c(c3)OCO4)cs2)c1 | -27%
CC(=O)N1CCCN(CC[C@H]2CN(C(=O)CC(C)(C)C)CC[C@H]2CC(=O)O)CC1 | 2%[70.6 µM]
CN1C[C@@H](NS(=O)(=O)Cc2ccccc2)C[C@H]1c1nc(-c2ccc3c(c2)OCO3)no1 | -11%

Following part.
Structure | NPR1 antag
CC(C)C[C@@H]1N[C@H](C(=O)O)Cc2cn(Cc3nccn3C)c3cccc1c23 | -7%
COc1cncc([C@@H](NC(=O)c2ccc3c(c2)CCC3)C2CC(O)C2)c1 (stereo partly specified) | 0%
CCc1cccc(C)c1NC(=O)Cn1nc2n(c1=O)CCCC2 | 2%
CC(C)c1nnc(C2CN(C(=O)C3CCCCC3)CC23CCOCC3)o1 (stereo unspecified) | -2%
CCC(=O)N1CC(C(N)=O)C2(CCOCC2)C1 (stereo unspecified) | -6%
O=C(c1ccc2cc[nH]c2c1)N1C[C@@H](CO)[C@H](c2ccccn2)C1 | 6%
CN(C)c1cccc(C(=O)N2CCC(c3n[nH]c(=O)n3-c3ccccc3)CC2)c1 | 0%
CS(=O)(=O)N(Cc1cccnc1)C1CN(C(=O)COc2ccc(F)cc2)C1 | -7%
Cc1nc(NCCCc2csc(N)n2)cc(C2CC(O)C2)n1 (stereo unspecified) | 6%
COCC1CN(C2CCC2)CC12CCN(C(=O)c1cccc(C#N)c1)CC2 (stereo unspecified) | -20%

Further compounds follow:
Structure | NPR1 antag
O=C(CN1CC2CC(C1)[C@H]1CCCC(=O)N1C2)NCCC1=CCCCC1 (stereo partly specified) | 2%
Cc1cc2nc3n(c(=O)c2n1CC(=O)Nc1ccccc1)CCCCC3 | 6%
Cc1nc(N2CCN(C(=O)c3ccccc3)CC2)cc(C(F)(F)F)n1 | -1%
CCCn1ncc(CN2CCC(Cc3cccc(C(F)(F)F)c3)(C(=O)OCC)CC2)c1C | ?
Cc1cc(C(=O)N[C@H](C)c2c(-c3ccc(F)cc3)noc2C(=O)O)c(C)o1 | 1%[70.6 µM]
COc1ccc(N2CCN(C(=O)Nc3nc(C)ns3)CC2(C)C)cc1 | 7.9µM*
CCCc1noc(-c2cn(C3CCN(C(=O)c4ccc[nH]4)CC3)nn2)n1 | -12%
CC(C)NC(=O)c1ccc(CC2CCN(C)CC2)cc1 | 2%
CCCNC(=O)N1CCC2(CC1)CC(C(=O)N1CCOCC1)N(C)C2 (stereo unspecified) | 4%
OC1(CN2CCCCC2)CCN(Cc2ccc(F)c(Cl)c2)C1 (stereo unspecified) | -2%

Continuation.
Structure | NPR1 antag
CN1C(=O)COC[C@@H]1[C@H](O)c1ccc(NC(=O)c2ccc(C#N)cc2)cc1 | -14%[70.6 µM]
Cc1ccc(NC(=O)N2CCC(CCN)CC2)cc1F | 3%
CS(=O)(=O)c1ccc(CN2CCN3C(=O)N(C4CCCCC4)C[C@H]3C2)cc1 | ?
O=S(=O)(Cc1ccccc1)NCc1cccnc1Oc1ccccc1 | 1%
O=C(NCc1ccco1)N1CC(n2cc(COc3ccccc3)nn2)C1 | -3%
Cc1ccc(Cl)cc1NC(=O)CN1C(=O)NC2(CCC(C)CC2)C1=O (stereo unspecified) | 12%
COc1cccc(C2Cn3nnc(-c4nc(-c5ccccc5F)no4)c3CO2)c1 (stereo unspecified) | -14%
O=C1CC2(CCN(C(=O)c3ccccn3)CC2)Oc2cc(Cl)ccc21 | -13%
CN(Cc1ccc(F)cc1)Cc1cnc(S(C)(=O)=O)n1CCCc1ccccc1 | 0%
CN(C)C[C@@H]1CN(c2ccncn2)C[C@H]1NC(=O)Cc1cccs1 | -2%

Next part
Structure | NPR1 antag
Cc1ccc(-n2nc(C)c([C@H]3C=C[C@@H](OC(=O)Nc4cccc(F)c4)C3)c2C)cc1Cl | -21%
O=C(c1cnccn1)N1CCC(Oc2ccccc2-c2nc(-c3ccccc3)no2)C1 (stereo unspecified) | 2%
N#Cc1ccc(S(=O)(=O)NC2CCc3n[nH]c(=O)n3CC2)cc1 (stereo unspecified) | 6%
COc1cccc(CN2C[C@@H](CO)[C@H](NC(=O)C3CCC3)C2)n1 | -2%
CN(C)c1ccc2ncc(Nc3ccccc3F)n2n1 | -8%[70.6 µM]
COCCNC(=O)C(C)(C)Oc1nn(Cc2cccc(Cl)c2)c2ccccc12 | -27%[70.6 µM]
CCN(CC)C(=O)C[C@@H]1c2nc(NC(=O)CC(C)(C)C)sc2C[C@@H]2[C@](C)(CO)[C@H](O)CC[C@]21C | 0%
COCCN(C)C[C@H]1C[C@H](CO)CN(C(=O)c2ccc(OC)c(F)c2)C1 | 3%
O=C(NC1CCN(c2cc(C(F)(F)F)ncn2)CC1)c1ccc(F)cc1 | -1%
Cc1ccc(-c2noc([C@@H]3C[C@@H](O)CN3Cc3cccc(C#N)c3)n2)cc1F | -24%[70.6 µM]

The listing continues.
Structure | NPR1 antag
COc1ccc2nc(C[C@@H]3C[C@@H](C(C)C)[C@H](CNC(=O)C4CCCCC4)C=C3C)[nH]c2c1 | -29%[70.6 µM]
O=C(CN1C(=O)NC(c2ccccc2Cl)C2=C1COC2=O)NCCc1ccc(Cl)cc1 (stereo unspecified) | -5%
Cn1nccc1C(=O)N1CC(c2nc(CCOCC3CCCC3)no2)C1 | -1%
O=C(C[C@@H]1C[C@H]2O[C@H](CNCc3cnccc3Cl)[C@@H](O)[C@H]2O1)N1CCOCC1 | 2%[70.6 µM]
O=C1c2cnc(-c3ccsc3)nc2OCCN1c1ccccc1 | -5%[70.6 µM]
CN1C(=O)c2cccn2CC1CNC(=O)CCCc1ccccc1 (stereo unspecified) | 2%
Cn1c(CCNC(=O)C2(Cc3ccccc3)CCCCC(=O)N2)nc2ccccc21 (stereo unspecified) | -14%
CN(C)c1nc(-c2ccncc2)nc2c1CCN(C(=O)c1ccc(=O)[nH]c1)C2 | 3%
CCn1ncc(C(=O)N2C[C@@H](CO)[C@H](c3ccccn3)C2)c1C | 6%
